High-throughput results (PubChem)
Ba CapD inh: blocks the Bacillus anthracis CapD enzyme | z-score (concentration not given with the values) | purified CapD enzyme, fluorescence intensity read-out; stronger effect = lower value; some hits fall short of the stated cut | 140,000 compounds, 0.23% hits;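 active = z-score under -4 in either of two replicates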;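 also: stock transfer was 100 nL into about 40 µL; score is relative to mean and spread of the plate; one replicate is shown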
AID504770: growth inhibitors of E. coli YBA685 in a screen for V. cholerae RctB (chromosome II replication) inhibitors | 130,000 compounds, 0.27% hits | z-score (test concentration not listed) | E. coli YBA685 rctB-dependent plasmid, OD600 growth, 3 h; stronger effect = lower value | AID 504770;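 active = z-score under -2 on both plates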;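 also: wells of about 30 µL received 100 nL stock; score is relative to mean and SD of the test wells; the first replicate is given; strong numbers were not always called active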
* hit, by the source's call; & = joins results of further samples.

For CCOc1ccc(N2C(=O)/C(=C\c3ccco3)S(=O)(=O)C2c2cccc([N+](=O)[O-])c2)cc1 (centres undefined) the results were Ba CapD inh -1.4.
Cc1ccc(OCC(=O)Nc2cccnc2)c(-n2nc3ccccc3n2)c1 was read as AID504770 0.25.
Screening COc1ccc(N2CCN(Cc3ccc(Cl)nc3)CC2)cc1 returned Ba CapD inh 0.31 and AID504770 0.
Screening O=c1[nH]c(Nc2nc(-c3ccccc3)c3cc(Cl)ccc3n2)nc2c1CCC2 returned Ba CapD inh 0.53 and AID504770 0.35.
O=C(NCC1CCCO1)c1cccc(-n2cnnn2)c1 (centres undefined) was read as AID504770 -1.6.
COc1ccc(CCNC(=O)c2nn(C)c3c2COc2ccccc2-3)cc1OC was read as Ba CapD inh 0.31 and AID504770 0.1.
For Cc1cccc(C(=O)NCC(=O)O)c1 the results were Ba CapD inh 0.56.
Screening CCCCn1c(=O)c2oc3ccccc3c2n(CC(N)=O)c1=O returned Ba CapD inh 4.5 and AID504770 -0.45.
Screening O=c1[nH]nc(Sc2ncnc3sc4c(c23)CCCCC4)n1CC1CCCO1 (centres undefined) returned AID504770 -0.85.
Screening N/C(CS(=O)(=O)Cc1cccc(C(F)(F)F)c1)=N\O returned Ba CapD inh 10 and AID504770 -0.3.
For COc1cc(OC)c(NC(=O)Cn2c(=O)n(C)c(=O)c3ccccc32)cc1Cl the results were AID504770 -0.5.
COc1ccc(OC)c(N2CC(O)(c3ccccc3)[N+]3=C2SCCC3)c1 (centres undefined) was read as Ba CapD inh 0.32.
Screening CCC(C)NC(=O)c1cn(CCOC)c(=O)c2c1c1ccccc1n2C (centres undefined) returned Ba CapD inh -2.3 and AID504770 -0.55.
`CCN1C(=O)CC(c2ccc(OC)cc2)Sc2ccccc21` (centres undefined) gave Ba CapD inh 1 and AID504770 0.05.
Screening N#CCCSc1nnc(-c2cccnc2)o1 returned Ba CapD inh -0.72 and AID504770 -0.25.
`O=C(Cn1cnc2onc(-c3ccc(Cl)cc3)c2c1=O)NCc1ccccc1Cl` gave Ba CapD inh 0.05 and AID504770 -0.45.
Screening COc1cccc(-c2nc(CS(=O)(=O)CC(=O)NCCc3ccccc3)c(C)o2)c1 returned Ba CapD inh -0.17 and AID504770 -0.25.
Screening C=CCn1c(SCc2ccccc2)nnc1-c1ccc2ncccc2c1 returned Ba CapD inh 11 and AID504770 -0.55.
For Cc1[nH]c2ccc(-c3nnc(SCC(=O)c4ccccc4F)o3)cc2c1C the results were AID504770 1.4.
CC1CCCC(NC(=O)Cn2nnc(-c3ccc(Cl)cc3)n2)C1C (centres undefined) was read as AID504770 -0.15.
For CCc1c(C)sc2nc(CC(=O)N3CCOCC3)[nH]c(=O)c12 the results were AID504770 -0.35.
C/C=C/C=N/Nc1nc(C)cc(=O)[nH]1 was read as AID504770 0.25.
Screening CCCCSC1=NC(C)(C)CC(C)O1 (centres undefined) returned AID504770 -0.25.
Screening COc1ccccc1N(C)S(=O)(=O)c1ccc(C)c(C(=O)O)c1 returned AID504770 -0.25.
`FC(F)(F)c1c(-c2nc(-c3ccc(Cl)cc3)no2)cnn1-c1ccccc1` gave Ba CapD inh 0.23 and AID504770 -0.75.
Screening Cc1nc2ccc(NC(=O)CC(C)(C)C)cc2s1 returned AID504770 -0.65.
`O=C(O)CCn1cnc2sc3c(c2c1=O)CCCC3` gave AID504770 1.6.
For COc1ccc(NC(=O)c2c(NC(=O)CCC(=O)O)sc3c2CCC3)cc1 the results were Ba CapD inh -0.56.
For CC(Sc1nncn1C)C(=O)N(Cc1ccccc1)Cc1ccccc1 (centres undefined) the results were AID504770 -0.8.
COC(=O)N/N=C(\C)c1ccccc1Br was read as AID504770 1.6.
Screening Clc1cccc(C2OCC3(CO2)COC(c2cccc(Cl)c2)OC3)c1 (centres undefined) returned Ba CapD inh -0.18 and AID504770 -0.9.
`CCC(C)(C)c1ccc(S(=O)(=O)NC(COC)C(O)c2ccccc2)cc1` (centres undefined) gave Ba CapD inh -0.73.
Screening CC1NC(=O)NC1CCCCC(=O)O (centres undefined) returned Ba CapD inh 1.4 and AID504770 -0.35.
For COc1ccccc1NC(=O)c1c(NC(=O)c2ccc([N+](=O)[O-])cc2)sc2c1CCCCC2 the results were Ba CapD inh -0.87.
`CCCNC(=O)c1cc(-c2cccc(OC)c2)on1` gave Ba CapD inh -0.055 and AID504770 0.25.
COc1ccc(Cl)cc1C(=O)N/N=C/c1cccc(Oc2cccc(C(F)(F)F)c2)c1 was read as Ba CapD inh -1.1.
COc1cc2c(C(=O)NCCC3=CCCCC3)cn(C)c(=O)c2cc1OC was read as Ba CapD inh 4.1 and AID504770 -0.7.
Screening CC1CCCCC1NC(=O)c1ccccc1Cl (centres undefined) returned Ba CapD inh 0.31 and AID504770 1.5.
`Cc1ccc(S(=O)(=O)NCc2nnc(N)s2)cc1` gave Ba CapD inh -0.8 and AID504770 1.6.
For Clc1ccc(N2Cc3ccccc3C2)cc1 the results were Ba CapD inh -0.15 and AID504770 -1.1.
For N#Cc1sc2nc3ccccc3n2c1/N=C/c1cccs1 the results were Ba CapD inh -0.12 and AID504770 -0.2.
`c1ccc(SCCNCc2ccccn2)cc1` gave AID504770 -0.25.
For CCOC(=O)c1sc2nc(C)nc(Nc3ccc(OC)cc3OC)c2c1C the results were Ba CapD inh 0.15.
CCOc1ccccc1NC(=O)c1cnccn1 was read as AID504770 -0.65.
Cc1ccc(C(=O)Nc2ccccc2)c(C)n1 was read as Ba CapD inh 5.2 and AID504770 -0.25.
CC1CC(C)CN(C(=O)CCCn2ncn3c(cc4occc43)c2=O)C1 (centres undefined) was read as Ba CapD inh -1.6 and AID504770 0.25.
CCOC(=O)c1oc2ccc(Br)cc2c1COC(=O)C1=COCCO1 was read as AID504770 0.
COc1nc(-c2cccs2)cc(-c2ccc(C(C)C)cc2)c1C#N was read as Ba CapD inh 44.
CCOC(=O)CSc1nnc(CCN2C(=O)c3cccc4cccc(c34)C2=O)n1-c1ccccc1 was read as Ba CapD inh 1.7.
For CCC1NCCNC1=O (centres undefined) the results were Ba CapD inh 0.21 and AID504770 -0.6.
Screening c1cncc(-c2nc(-c3ccncc3)ncc2-c2cnccn2)c1 returned Ba CapD inh -0.05.
`CC(C)C(NC(=O)c1ccc(NS(C)(=O)=O)cc1)C(C)C` gave Ba CapD inh 0.59 and AID504770 -0.25.
O=C1/C(=C\Nc2ccc(F)cc2)S(=O)CN1c1ccc(F)cc1 (centres undefined) was read as Ba CapD inh -0.34 and AID504770 1.8.
For CC1(C)CC(=O)C2=C(C1)OC(N)=C(C#N)C2c1ccc2c(c1Cl)OCO2 (centres undefined) the results were AID504770 -1.4.
`Cc1ccc(OCC(=O)N2CCc3ccccc3C2)c(Br)c1` gave Ba CapD inh -0.59 and AID504770 -0.6.
Screening O=C(O)CCNC(=S)Nc1ccc(Cl)cc1 returned Ba CapD inh 0.43 and AID504770 -0.25.
`Cc1ccc(C(=O)NCC2COc3ccccc3O2)cc1` (centres undefined) gave Ba CapD inh -0.25 and AID504770 -0.65.
`CCN(CC)C1CCCCC1` gave Ba CapD inh 0.27 and AID504770 -0.45.
CP(=O)(O)c1nccn1-c1ccc(Cl)nn1 was read as Ba CapD inh 0.1 and AID504770 0.6.
For FC(F)(F)c1cc(C(F)(F)F)c2ccc(N3CCOCC3)nc2n1 the results were Ba CapD inh -0.61.
For COc1cccc(NC(=S)NCc2cccnc2)c1 the results were Ba CapD inh -0.23.
O=C(Oc1ccc2c(=O)c(Oc3ccc4ccccc4c3)coc2c1)c1cncc(Br)c1 was read as Ba CapD inh -0.43.
Screening Cc1ccc(NCC(=O)NC2CCCCC2C)c(C)c1 (centres undefined) returned AID504770 -0.35.
For Cc1ccc(-n2ncc3c(=O)[nH]cnc32)c(C)c1 the results were Ba CapD inh -0.45 and AID504770 -1.1.
Cc1[nH]c2ccccc2c1C(=O)CSc1nnnn1-c1ccccc1 was read as Ba CapD inh 0.06 and AID504770 -0.3.
`O=[N+]([O-])c1ccc(S(=O)(=O)c2ccccc2)c(Cl)c1` gave Ba CapD inh -0.37.
For O=C(Cc1cccs1)N1CCN=C1SCc1ccccc1 the results were AID504770 0.
Screening O=C(COC(=O)Cc1ccsc1)NC1CCCCCC1 returned Ba CapD inh -0.005 and AID504770 1.5.
For CSc1nnc(CNC(=O)c2ccccc2)n1-c1ccccc1 the results were Ba CapD inh -0.43 and AID504770 -0.05.
For CCSC1=C(C#N)C(c2ccccc2)CC(=O)N1 (centres undefined) the results were AID504770 -0.2.
`COc1ccc(C2=NN(C(=O)CSc3nnc(CNC(=O)COc4ccccc4)n3C)C(c3ccc(C)cc3)C2)cc1` (centres undefined) gave Ba CapD inh 0.19.
COC(=O)c1ccc(NC(=O)CCc2c(C)nc3c(c(C)nn3C)c2C)cc1 was read as Ba CapD inh 1.1 and AID504770 0.25.
Screening CC(C)C(c1nnnn1CCc1ccccc1)N(Cc1ccco1)Cc1ccccc1Cl (centres undefined) returned AID504770 -0.1.
For O=C(OCc1ccc(F)cc1F)c1ccc(F)cc1 the results were Ba CapD inh -0.46 and AID504770 -0.4.
For COc1ccc(-c2cnn(-c3ccc(NC(=O)c4ccc(C(F)(F)F)cc4)cc3)c2)cc1 the results were Ba CapD inh -0.31.
`CCN1CCN(C(=O)NC(C(=O)NC2C(=O)N3C(C(=O)O)=C(CSc4nnnn4C)CSC23)c2ccc(O)cc2)C(=O)C1=O` (centres undefined) gave Ba CapD inh 0.14&-0.18 and AID504770 -1.6.
Screening CCCC1OCC2(CO)C(C)C=C(C)C1C2C (centres undefined) returned AID504770 2.
For CCCN(CCC)C(=O)c1ccc(CNS(=O)(=O)c2ccc(F)cc2)cc1 the results were Ba CapD inh 0.12 and AID504770 1.2.
N#Cc1ccsc1NC(=O)CSc1nnc(-c2ccccc2)n1Cc1ccc2c(c1)OCO2 was read as AID504770 -0.85.
Cc1cccc(N2CCN(C(=O)CCCC(=O)N3CCN(c4cccc(C)c4C)CC3)CC2)c1C was read as Ba CapD inh 0.26 and AID504770 0.35.
For CCCCc1ccc(N2C(=O)c3ccccc3NC2c2ccc(Br)cc2)cc1 (centres undefined) the results were Ba CapD inh 106.
O=C(CN1C(=O)/C(=C/c2ccccc2)SC1=S)Nc1cc([N+](=O)[O-])ccc1O was read as Ba CapD inh -0.5.
Oc1cccc2ccc(Oc3cccc4cccnc34)nc12 was read as Ba CapD inh -0.95 and AID504770 1.9.
For COC(=O)CC1C(=O)NCCN1C(=O)c1ccc(OC)cc1 (centres undefined) the results were AID504770 1.1.
For CCc1ccc[n+](OC(=O)N(CC)CC)c1 the results were Ba CapD inh 27 and AID504770 -0.25.
For Cc1ccccc1-n1c(=S)sc2c1nc(SCc1cccnc1)n1c3ccccc3nc21 the results were Ba CapD inh -0.79.
`CCCn1nc(C(=O)OC)c2ccccc2c1=O` gave AID504770 0.55.
O=C(CSc1cccc2cccnc12)OCC(=O)c1ccc(Br)cc1 was read as Ba CapD inh 12 and AID504770 -0.9.
Screening CCCSC1=C(C#N)C(c2cccnc2)C(C(=O)OCC)=C(c2ccccc2)N1 (centres undefined) returned Ba CapD inh -0.3.
Screening CC1SC2(NC1=O)C1CC3CC(C1)CC2C3 (centres undefined) returned Ba CapD inh -0.01 and AID504770 -0.25.
Screening Cc1nc(C(F)(F)F)ccc1NC(=O)C(F)(F)Sc1ccccc1 returned Ba CapD inh 0.64 and AID504770 0.55.
`COc1ccc(N2CCN(C(=O)c3cc(C)[nH]n3)CC2)cc1` gave Ba CapD inh -0.7 and AID504770 -0.6.
For O=C(COc1ccc(C(=O)c2ccc(F)cc2)cc1)NCCN1C(=O)CSC1=O the results were AID504770 0.4.
Screening CCOC(=O)CC1=Nn2c(C)nnc2SC1 returned AID504770 0.5.

Filtered by structure: the compounds so far with an aryl thioether with sulfur outside any ring
Screening O=c1[nH]nc(Sc2ncnc3sc4c(c23)CCCCC4)n1CC1CCCO1 (centres undefined) returned AID504770 -0.85.
Screening N#CCCSc1nnc(-c2cccnc2)o1 returned Ba CapD inh -0.72 and AID504770 -0.25.
Screening C=CCn1c(SCc2ccccc2)nnc1-c1ccc2ncccc2c1 returned Ba CapD inh 11 and AID504770 -0.55.
For Cc1[nH]c2ccc(-c3nnc(SCC(=O)c4ccccc4F)o3)cc2c1C the results were AID504770 1.4.
For CC(Sc1nncn1C)C(=O)N(Cc1ccccc1)Cc1ccccc1 (centres undefined) the results were AID504770 -0.8.
`c1ccc(SCCNCc2ccccn2)cc1` gave AID504770 -0.25.
CCOC(=O)CSc1nnc(CCN2C(=O)c3cccc4cccc(c34)C2=O)n1-c1ccccc1 was read as Ba CapD inh 1.7.
Cc1[nH]c2ccccc2c1C(=O)CSc1nnnn1-c1ccccc1 was read as Ba CapD inh 0.06 and AID504770 -0.3.
For CSc1nnc(CNC(=O)c2ccccc2)n1-c1ccccc1 the results were Ba CapD inh -0.43 and AID504770 -0.05.
`COc1ccc(C2=NN(C(=O)CSc3nnc(CNC(=O)COc4ccccc4)n3C)C(c3ccc(C)cc3)C2)cc1` (centres undefined) gave Ba CapD inh 0.19.
`CCN1CCN(C(=O)NC(C(=O)NC2C(=O)N3C(C(=O)O)=C(CSc4nnnn4C)CSC23)c2ccc(O)cc2)C(=O)C1=O` (centres undefined) gave Ba CapD inh 0.14&-0.18 and AID504770 -1.6.
N#Cc1ccsc1NC(=O)CSc1nnc(-c2ccccc2)n1Cc1ccc2c(c1)OCO2 was read as AID504770 -0.85.
For Cc1ccccc1-n1c(=S)sc2c1nc(SCc1cccnc1)n1c3ccccc3nc21 the results were Ba CapD inh -0.79.
O=C(CSc1cccc2cccnc12)OCC(=O)c1ccc(Br)cc1 was read as Ba CapD inh 12 and AID504770 -0.9.
Screening Cc1nc(C(F)(F)F)ccc1NC(=O)C(F)(F)Sc1ccccc1 returned Ba CapD inh 0.64 and AID504770 0.55.
